# Anaer choline gr = inhibitors of anaerobic choline-dependent gram-negative bacterial growth; Gram-negative bacterium anaerobic choline minimal medium, absorbance growth; stronger effect = lower value; many inactives read as strong as hits in the columns shown; calls only; 55,000 compounds, 0.2% hits; AID 1963822;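 active means growth z-score on choline under -2 at 7 or 20 h with little or no fall on glycerol, limits in tiers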;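 further: stock transfer was 300 nL into about 50 µL; the organism is E. coli; final concentration not given here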
# Anaer choline gr early = further read-out of Anaer choline gr, marked with its call; z-score; measured here: choline growth z-score, timepoint 1;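 score of optical density at 7 h as mean of two plates; lower means less growth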
# * marks the source's active call; other numbers are inactive results; i = inactive; & = joins results of further samples. An excerpt (hit frequency here may not be typical).
# Second line of a record: Anaer choline gr	Anaer choline gr early
CC1CCCCN1S(=O)(=O)c1ccc2c(c1)C(=O)Nc1ccccc1O2 (configuration not stated)
→ i	1.1
Cc1nc(Nc2cccc(F)c2)c2c(C)noc2n1
→ i	-1.6
O=C(c1ccccc1F)N1CC(OCc2ccc(F)cc2)C1
→ i	-0.01
C=CCn1nc(SCC(=O)OCC)n2c(=O)c3c(nc12)-c1ccccc1CC3(C)C
→ i	-0.54
Cc1cc(-c2c(C)sc(C)c2S(=O)(=O)Nc2ccc(C)c(Cl)c2)n[nH]1
→ i	0.36
O=C(Nc1ccc(Cl)cc1)c1cnn(-c2ccc(Cl)cc2)c1
→ i	-0.08
N#CC1=CN(c2ccc(Br)cc2F)c2cc(F)ccc2S1(=O)=O
→ i	1.2
O=C(NCCCN1CCCC1=O)c1nc(Nc2ccc(F)cc2)c2ccccc2n1
→ i	-0.51
CCOc1ccc(-c2noc(CSc3nc4cc5c(cc4c(=O)n3C)OCO5)n2)cc1
→ i	1.9
CCCn1c(=O)c2nscc2n(CC(=O)NC(C)C)c1=O
→ i	0.08
CCCCNC(=O)C1CCN(c2ncc(-c3cccc(C)c3)cn2)CC1
→ i	0.71
COc1ccc(-c2ccnc3c(-c4ccc(F)cc4)c(C)nn23)cc1OC
→ i	1.4
CC(C)c1cc(C2CCCN2C(=O)Nc2ccc(Br)cc2)on1 (configuration not stated)
→ i	-0.18
O=C(Cn1nc2c3scc(-c4ccc(F)cc4)c3ncn2c1=O)NCCc1ccc(Cl)cc1
→ i	0.03
O=C(Nc1ccc(Cn2cnc(-c3nc(-c4cccc(F)c4)no3)c2)cc1)c1ccc2c(c1)OCO2
→ i	-0.9
Cc1ccc(-n2nc(C)c3c(=O)n(CC(=O)NCc4ccccc4Cl)ccc32)cc1
→ i	0.82
O=C(c1nc2n(n1)C1(CCCCC1)[C@@H]1CCCC[C@@H]1N2C(=O)C1CCCCC1)N1CCOCC1
→ i	0.68
CCc1oc2ccccc2c1CC1C(=O)N(C)c2ccccc21 (configuration not stated)
→ i	0.42
CC(C)Sc1nn(C)c2nc3c(c(=O)n12)C(C)(C)Cc1ccccc1-3
→ i	0.14
Cc1noc2c1C(c1cccc(F)c1)C1=C(CC(c3ccc(Cl)cc3)CC1=O)N2 (configuration not stated)
→ i	0.6

# (cont.)
# Second line of a record: Anaer choline gr	Anaer choline gr early
Cc1sc(-c2nc(C(C)C)cs2)cc1S(=O)(=O)N1CCC(C)CC1
→ i	-0.03
Cc1ccc(S(=O)(=O)NCCc2nc(-c3ccccc3)n[nH]2)cc1
→ i	-1.4
Cc1cc(N2CCOCC2)n2nc(C(F)(F)F)c(-c3ccccc3Cl)c2n1
→ i	0.42
CCCn1c(=O)c2ccccc2n2c(SCC(=O)Nc3ccc(C)cc3)nnc12
→ i	-0.52
COc1ccc(-c2cc(C(=O)N3CCCC3c3c(C)noc3C)no2)cc1OC (configuration not stated)
→ i	-0.66
O=c1ccc(-c2ccc(Cl)c(S(=O)(=O)N3CCCC3)c2)n[nH]1
→ i	-0.28
COc1ccc(-c2nc(CSCC(=O)N3CCC(Cc4ccccc4)CC3)c(C)o2)cc1OC
→ i	-0.96
CCc1nnc(C(=O)Nc2cccc(C(=O)NCc3cccnc3)c2)s1
→ i	-0.44
Clc1ccc(Cl)c(-c2ccc(CNCC3CCNCC3)o2)c1
→ i	-2.1
CCC(C)NC(=O)CN1C(=O)C2CCCC2=Nc2ccccc21 (configuration not stated)
→ i	-0.18
Cc1cc(Cl)ccc1NS(=O)(=O)C1CCS(=O)(=O)C1 (configuration not stated)
→ i	-0.44
CNCCC(Oc1ccc(C(F)(F)F)cc1)c1ccccc1 (configuration not stated)
→ i	0.39&-0.52&-0.51&-1.6
CC(C)CNc1oc(-c2ccc(S(=O)(=O)N3CCOCC3)cc2)nc1C#N
→ i	0.05
CCC(C)NC(=O)c1cc(NS(=O)(=O)c2ccc(Cl)cc2)cnc1N1CCNCC1 (configuration not stated)
→ i	0.25
Cc1cc2c(cc1S(=O)(=O)N(C)CC(=O)NCCC(C)C)OC(C)C(=O)N2 (configuration not stated)
→ i	-0.46
Cc1cc(C)n2ncc(-c3ccc(C)c(S(=O)(=O)NCCCc4ccccc4)c3)c2n1
→ i	-0.84
Cc1ccc(NC(=O)c2nnc(SCC(=O)NCCCN3CCc4ccccc4C3)s2)cc1
→ i	-0.27
Cc1noc(C)c1S(=O)(=O)Nc1cc2c(cc1Sc1ccc(F)cc1)n(C)c(=O)n2C
→ i	0.29
Cc1cc(-c2csc(S(=O)(=O)NCc3ccc(N(C)C)cc3)c2)on1
→ i	0.79
COc1ccc(NC(=O)Nc2ccc(Nc3cc(N(C)C)nc(C)n3)cc2)cc1
→ i	0.95

# (next part)
# Second line of a record: Anaer choline gr	Anaer choline gr early
COc1ccc2[nH]cc(CCNC(=O)c3cnn(-c4ccc(Cl)cc4)c3C3CCNCC3)c2c1
→ i	-0.98
Cc1noc(C)c1C(=O)N1CCCC1c1cc(C(C)C)on1 (configuration not stated)
→ i	0.01
O=C(NCCc1ccccc1)N1CCSc2ncccc21
→ i	-0.73
CCCCN1CC(=O)c2ccccc2S1(=O)=O
→ i	-0.84
COc1cccc(Cn2c(SCc3ccccc3C)nc3ccncc32)c1
→ i	-1.6
O=C(Nc1ccc2c(c1)OCCO2)c1ccc(N2C(=O)CCS2(=O)=O)cc1Cl
→ i	0.3
COc1ccc(C(=O)n2c(=O)oc3ccc(C(C)(C)C)cc32)cc1OC
→ i	-1.5
CCCCN(Cc1ccccc1)C(=O)c1cc2c(=O)n3ccccc3nc2s1
→ i	-0.74
CCCS(=O)(=O)NCc1ccc2c(c1)N(C(=O)c1ccc(OC)cc1)CC2
→ i	-0.68
CC(=O)Nc1nc(-c2ccc(S(=O)(=O)N3CCN(c4ccccc4)CC3)cc2)cs1
→ i	-0.15
O=S(=O)(c1ccc2c(c1)CCCC2)N1CCCN(c2nc3cccnc3s2)CC1
→ i	0.78
Cc1ccc(C)c(S(=O)(=O)N2CCC3(CC2)NCCN=C3NCc2ccccc2)c1
→ i	-1.9
COc1ccc2c(c1)c(NC(C)=O)c1n2CC(C)(C(=O)NC2CCCCC2)N(CC2CCCO2)C1=O (configuration not stated)
→ i	-1.8
CCOC(=O)c1cc(NC(=O)N(C(C)C)C2CCCCC2)c(C)nc1C
→ i	-0.33
CCN1C(C(=O)OC)=C(OC(=O)CN2C(=O)c3ccccc3C2=O)c2ccccc2S1(=O)=O
→ i	0.59
COc1cccc(C(=O)N2CCC(c3nc4ccccc4o3)CC2)c1
→ i	0.76
COc1cccc(-c2nn(C)c3sc(C(=O)OCCOc4ccccc4)cc23)c1
→ i	-0.02
Cc1ccc2nc3c(cc2c1)CCN3S(=O)(=O)c1ccc2c(c1)OCO2
→ i	-0.03
CC(C)NCc1cc(=O)n2[nH]c(NCc3ccccc3)nc2n1
→ i	0.18
O=c1ccc(-c2ccc3c(c2)OCO3)nn1CCc1nc(-c2ccccc2Cl)no1
→ i	-0.42

# Additional structures.
# Second line of a record: Anaer choline gr	Anaer choline gr early
CCS(=O)(=O)N1CCC(c2noc(-c3ccccc3)n2)CC1
→ i	-0.13
Cc1ccc2c(c1)C=C(C(=O)NCc1ccccc1)C=CO2
→ i	1.2
O=C(c1ccc(-c2nc(-c3ccccc3)no2)cc1)N1CCn2c1nc1ccccc12
→ i	-0.35
Cc1nc2sc3ccccc3n2c(=O)c1S(=O)(=O)NCCc1ccc(Cl)cc1
→ i	0
C=CCOc1ccc(C2CC(=O)Nc3c2cnn3-c2ccc3nnc(C)n3n2)cc1OC (configuration not stated)
→ i	-0.53
O=S(=O)(c1cc(-c2nnc(C3CC3)o2)co1)N1CCN(c2ccccc2F)CC1
→ i	1.2
Cc1ccc(C)c(NC(=O)CCc2nc(CSc3nc4cc(C)ccc4o3)no2)c1
→ i	0.41
CSc1ccc(Cl)c(-c2nc(-c3ccc4oc(C)nc4c3)no2)c1
→ i	0.54
CC(C)Cn1c(=O)c2ccc(C(=O)NC3CCCC3)cc2n2c(=O)n(CC(=O)NC(C)(C)C)nc12
→ i	0.74
COc1ccc(Cl)cc1NS(=O)(=O)c1cc(-c2cc(C(F)(F)F)on2)sc1C
→ i	0.99
Cc1cc(C(=O)NCCc2ccc(Cl)cc2)c2ccccc2n1
→ i	0.65
Cc1ccc(Nc2c3c(nc4ncnn24)CCCC3)cc1F
→ i	-0.9
CCN(CC)CCNc1cc(C)nc2c(-c3ccc(F)cc3)cnn12
→ i	-0.76
CCOc1ccc(NC(=O)CSc2nnc3ccc(C(=O)Nc4ccc(C)cc4)cn23)cc1
→ i	-0.98
COC(=O)c1[nH]c2c(c1C)C(=O)CCC2
→ i	-0.92
COc1ccc(NC(=O)CCc2nnc(C(=O)Nc3ccc(C)cc3)s2)cc1
→ i	-0.42
COc1cc(CN2CCCC2c2cc(C)on2)ccc1O (configuration not stated)
→ i	0.08
COCc1cc(C)nc2sc3c(c12)NCN(c1cccc(OC)c1)C3=O
→ i	-0.27
Cc1ccc(CCNC(=O)CCn2ccc3cc(S(=O)(=O)N4CCC(C)CC4)ccc32)cc1
→ i	1.2
CCNc1cc(C)nc(N2CCN(C(=O)c3ccccc3C)CC2)n1
→ i	-0.8

# An excerpt of these results, as labelled records:
> O=S(=O)(c1ccc2c(c1)CCCC2)N1CCCN(c2nc3cccnc3s2)CC1
  Anaer choline gr = i; Anaer choline gr early = 0.78
> Cc1ccc(C)c(S(=O)(=O)N2CCC3(CC2)NCCN=C3NCc2ccccc2)c1
  Anaer choline gr = i; Anaer choline gr early = -1.9
> COc1ccc2c(c1)c(NC(C)=O)c1n2CC(C)(C(=O)NC2CCCCC2)N(CC2CCCO2)C1=O (configuration not stated)
  Anaer choline gr = i; Anaer choline gr early = -1.8

# Next part.
SMILES | Anaer choline gr | Anaer choline gr early
O=C(NCCCN1CCCCC1)C1CCN(c2ncc(-c3ccc(F)cc3)cn2)CC1 | i | -2.6
Cc1ccccc1N1C(=O)N(c2ccc(F)cc2)C2CS(=O)(=O)CC21 (configuration not stated) | i | 0.36
CCCC(C(=O)Nc1cc(Cl)c(OC)cc1OC)N1Cc2ccccc2C1=O (configuration not stated) | i | -0.14
CC(C)CN(CC(C)C)C(=O)C1CCN(S(=O)(=O)c2cccc3nsnc23)CC1 | i | -1.5
CCS(=O)(=O)c1nc2ccc(NS(=O)(=O)c3ccccc3)cc2s1 | i | -0.65
COc1ccc(OCc2nnc3sc(-c4cc(CC(C)C)[nH]n4)nn23)cc1 | i | -0.41
O=C(CCc1nc(-c2ccc(N3CCCC3)cc2)no1)Nc1ccc(Br)cc1F | i | 0.87
COC(=O)c1ccccc1NC(=O)c1cc(=O)c2ccc(C)cc2o1 | i | 0.04
c1ccc(-c2noc(-c3ccc(NC4CCCC4)nc3)n2)cc1 | i | 1.1
CCc1ccc(S(=O)(=O)c2cnc(N3CCN(c4cc(Cl)ccc4C)CC3)nc2N)cc1 | i | 1.7
Cc1ccc(CN2C(=O)C3CCCCC3C2=O)cc1S(=O)(=O)NC1CCCc2ccccc21 (configuration not stated) | i | 0.41
CCCc1cc(Sc2ccc(NS(=O)(=O)c3ccc(Cl)cc3)cc2)n2ncnc2n1 | i | -0.8
CCN(CC)CCNC(=O)C(C)C1CCN(S(=O)(=O)c2cccs2)CC1 (configuration not stated) | i | -0.32
O=C1CCS(=O)(=O)N1c1ccc(S(=O)(=O)Nc2ccc(F)cc2)cc1 | i | -0.19
CC1CCC(NC(=O)C2c3cccn3CC(=O)N2c2cccc(Cl)c2)CC1 (configuration not stated) | i | -0.21
Cc1cccc(NC(=O)c2ccc3nnc(SCC(=O)Nc4ccc(C(C)C)cc4)n3c2)c1 | i | -1.1
CCCn1c(CCc2ccccc2NS(=O)(=O)c2cnn(CC)c2)nc2ccccc21 | i | 0.4
O=C(NCc1nc2cccnc2n1Cc1ccccc1)c1ccncc1 | i | -1.8
Cc1cc(C)cc(NC(=O)C2CCN(Cc3cnn(-c4ccccc4)c3-n3cccc3)CC2)c1 | i | -0.03
CCCNC(=O)N1CCCN(S(C)(=O)=O)CC1 | i | 1.3

# Grouped by structure: those above containing bromine.
SMILES | Anaer choline gr | Anaer choline gr early
N#CC1=CN(c2ccc(Br)cc2F)c2cc(F)ccc2S1(=O)=O | i | 1.2
CC(C)c1cc(C2CCCN2C(=O)Nc2ccc(Br)cc2)on1 (configuration not stated) | i | -0.18
O=C(CCc1nc(-c2ccc(N3CCCC3)cc2)no1)Nc1ccc(Br)cc1F | i | 0.87

# Later entries:
SMILES | Anaer choline gr | Anaer choline gr early
O=C(Cn1cnc2onc(-c3ccc(Cl)cc3)c2c1=O)Nc1nccs1 | i | 0.04
Cc1cc(-c2c(C)sc(C)c2S(=O)(=O)Nc2ccc(C(C)C)cc2)n[nH]1 | i | 1.2
CCOC(=O)CC(=O)CSc1n[nH]c2nc3ccccc3n12 | i | 0.04
Cc1ccccc1COc1ccc(C2CC(=O)Nc3nc(N)[nH]c(=O)c32)cc1 (configuration not stated) | i | 0.91
Cc1ccc(-c2cc(N3CCN(S(=O)(=O)c4cnn(C(F)F)c4C)CC3)ncn2)cc1 | i | 0.76
CCOc1ccc2c(c1)cc(C(=O)Nc1ccc(N(C)C)cc1)n2C | i | 0.32
Cc1cc(C)c2c(-n3cccc3)nn(CC(=O)NCc3ccccc3)c2n1 | i | -0.54
O=C(CCC1CCCC1)NCCn1c(CCc2ccccc2)nc2cccnc21 | i | -1.1
CC(=O)O[C@]1(C(C)=O)CC[C@H]2[C@@H]3C=C(C)C4=CC(=O)CC[C@]4(C)[C@H]3CC[C@@]21C | i | 0.07&0.19
CCCn1c(C)ccc(-c2noc(CCCC(=O)NCC(C)C)n2)c1=O | i | 0.24
CCC(=O)Nc1cccnc1-c1ccc(C(=O)Nc2ccc(Br)cc2)cc1 | i | -0.51
Cc1cc(C)nc(N2C(=O)CC(Cc3ccc(Cl)cc3)C2=O)n1 (configuration not stated) | i | -0.08
CC(C)(C)c1ccc(C(=O)N2CCN(c3cc(=O)n4nc(-c5ccccc5)sc4n3)CC2)cc1 | i | 1.9
COc1ccc(OCCn2c(C3CCCN3C(C)=O)nc3ccccc32)cc1 (configuration not stated) | i | 0.43
CCOC(=O)c1c(C)c(S(=O)(=O)NC(C)(C)CC)c(C)n1C | i | -0.66

# Compound activity (PubChem BioAssay)
